Compound activity from PubChem BioAssay.
N370S GC: N370S glucocerebrosidase modulation, Gaucher chaperone candidate | P04062 | N370S GC spleen homogenate, 4MU-glucoside fluorescence | Potency, µM (top dose mostly 59.4 µM), without a hit: at the top dose activity change, negative = inhibition, usual class: inhibitors | 330,000 compounds, 0.092% hits;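 further: 0% = full enzyme activity and -100% = no enzyme basal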
FEN1 inh: inhibitors of human flap endonuclease 1; 390,000 compounds, 0.35% hits; Potency, µM (top dose mostly 114 µM), for the others: at the top dose activity change, negative = inhibition, actives largely listed as inhibitors; P39748; Recombinant FEN1 flap cleavage, fluorescence, 15 min; AID 588795; further: nearly all actives have a fitted effect of over 65% in size
Target sequence (P39748 whole entry, looked up): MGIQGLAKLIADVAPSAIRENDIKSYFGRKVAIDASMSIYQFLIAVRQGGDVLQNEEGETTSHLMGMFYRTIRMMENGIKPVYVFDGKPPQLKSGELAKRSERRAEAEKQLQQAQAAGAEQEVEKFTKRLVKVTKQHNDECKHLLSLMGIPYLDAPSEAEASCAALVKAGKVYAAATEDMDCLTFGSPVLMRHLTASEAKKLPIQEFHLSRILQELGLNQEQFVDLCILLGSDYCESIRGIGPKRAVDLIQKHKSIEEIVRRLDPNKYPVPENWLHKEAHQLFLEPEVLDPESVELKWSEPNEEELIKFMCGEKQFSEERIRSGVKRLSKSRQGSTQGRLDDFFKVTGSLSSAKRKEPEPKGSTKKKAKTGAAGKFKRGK
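Compounds are tested as a concentration series against 10 nM FEN1; after a 15 min room-temperature preincubation, 50 nM substrate starts cleavage, with plate reads at 0 and 15 min. Normalized responses are fitted by a Hill equation.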
The depositor's hits bear a star; ? = inconclusive; nt = no result given; [ ] = dose if it differs, or a comment. The call rests on the fitted dose curve; in most records, active means well fitted curve in the direction sought with a large enough effect; inconclusive means small, poorly fitted or top-dose-only effect, or another doubt; inactive means no such curve, though single readings can be large; an effect the other way counts as inactive or inconclusive. Unless noted, on the % scale 0 is the no-effect control and ±100 the full control effect; potency means the concentration at half of the fitted maximal effect.

SMILES	N370S GC	FEN1 inh
Cc1sc2nc(CN3CCOCC3)nc(N3CCC(C(N)=O)CC3)c2c1C	-13%[2.35 µM]	-1%
COc1cc(OC)c(OC)cc1CNC(=O)c1ccc(COc2ccccc2)cc1	0%	15%
CCOC(=O)CNC(=O)c1cnn2cccnc12	8%	11%
Cc1cccc(C(=O)NCC(c2ccco2)N(C)C)c1 (stereo not given)	-2%	15%
O=C(c1ccc(F)cc1)N(C(=O)c1ccc(F)cc1)c1ncccn1	-3%	-4%
CC1=C(C(N)=O)C(c2ccc(Cl)cc2Cl)n2ncnc2N1 (stereo not given)	7%	6%
CN(C)C(=O)CSc1ccccc1C(=O)OCC(=O)NC1CC1	nt	5%
CCSc1nnc(NC(=O)CSc2nc(C)cc(C)n2)s1	12%	8%
CCN(CC)S(=O)(=O)c1ccc(OC)c(NC(=O)COc2ccccc2[N+](=O)[O-])c1	-13%	35%[activator]
O=C(N/C(=C/c1cccs1)c1nc2ccccc2[nH]1)c1ccccc1	3%	-4%
O=C(NCc1ccccc1)c1c(O)c2ccccc2[nH]c1=O	0%	-1%
COc1ccccc1CCc1nnc(CCC(=O)NC(C)Cc2cccc(C)n2)o1 (stereo not given)	0%	5%
Cc1ccc(CC(=O)Nc2cccnc2)cc1	-7%	4%
CCCCOC(=O)C(C)Sc1n[nH]c(=O)[nH]c1=O (stereo not given)	1%	0%
Cc1ccccc1C(=O)Nc1ccnn1C1CCN(CCCc2ccccc2)CC1	?	0%
COC(=O)C(C)(C)ONC(=O)Nc1ccccc1	-1%	-7%
COc1ccc(N2CCN(C(=O)/C(C#N)=C/c3ccccc3)CC2)cc1	2%	14%
CCOC(=O)c1ccc(NC(=O)c2csc3c2CCCC3)cc1	nt	-6%
NC(=O)c1ccccc1NC(=O)c1ccoc1	-3%	-1%
Cc1ccc(OC(=O)C2CSC3(C)CCC(=O)N23)c(Br)c1 (stereo not given)	2%	3%
CCOC(=O)c1c(C)[nH]c(C(=O)OCC(=O)N(CC(C)C)C2CCS(=O)(=O)C2)c1C (stereo not given)	nt	-17%
O=C(Nc1ccccc1F)C(c1ccccc1)N1Cc2ccccc2C1=O (stereo not given)	nt	12%
COc1ccccc1NS(=O)(=O)c1cc(Cl)ccc1OC	-6%	-7%
CNCC(O)c1cccc(O)c1 (stereo not given)	4%	nt
CN1c2ccccc2C(C)(C)C12CC(c1ccc(Cl)c(S(=O)(=O)N3CCCC3)c1)=NO2 (stereo not given)	6%	nt
COC(CNC(=O)C1CCN(C(=O)c2cc3oc(C)cc3n2Cc2c(F)cccc2Cl)CC1)OC	-14%	3%
CC(=O)Oc1ccc(-c2csc(Nc3cccnc3)n2)cc1	15%	-3%
Cc1ccc(S(=O)(=O)CCC(=O)Nc2cccc(C)c2)cc1	2%	-3%
C/C(N)=C(/C#N)C(=O)CSc1ccccc1F	-4%	2%
CCOC(=O)c1ccc(NCc2ccc(N(C)C)cc2)cc1	-24%	-2%
CC(=O)NC(Cc1ccc(F)c(F)c1)C(=O)NC1CCN(c2nnnn2-c2ccccc2)CC1 (stereo not given)	-9%	-4%
COc1ccc(OC)c(/C=C/C(=O)N(C)CC(=O)Nc2ccc(N3CCOCC3)cc2)c1	nt	1%
Nc1cc(Br)c(N)c(Br)c1	-9%	-11%
Clc1ccc(COc2ccccc2CNCc2cccnc2)cc1	-22%	-14%
CCN(CC(=O)Nc1ccc(S(=O)(=O)N2CCCC2)cc1)CC(=O)Nc1ccccc1C(F)(F)F	nt	-18%
COc1ccc(S(=O)(=O)N(C)CC(=O)NCCN2CCOCC2)cc1C	2%	3%
CCn1c(SCC(=O)Nc2nccs2)nnc1-c1ccncc1	9%	8%
CCc1ccccc1NC(=O)CN1CCN(CC(=O)NCc2ccc(Cl)cc2)CC1	nt	18%
Cc1sc(NC(=O)C2CSC3(C)CCC(=O)N23)nc1-c1ccccc1 (stereo not given)	-5%	-6%
COC(=O)c1c(NC(=O)c2ccc(C)cc2)sc(Cc2ccccc2)c1C	6%	-12%

Sorted by SMILES length (descending): some entries from above
SMILES	N370S GC	FEN1 inh
CC(=O)NC(Cc1ccc(F)c(F)c1)C(=O)NC1CCN(c2nnnn2-c2ccccc2)CC1 (stereo not given)	-9%	-4%
COc1ccc(OC)c(/C=C/C(=O)N(C)CC(=O)Nc2ccc(N3CCOCC3)cc2)c1	nt	1%
Cc1sc(NC(=O)C2CSC3(C)CCC(=O)N23)nc1-c1ccccc1 (stereo not given)	-5%	-6%
COc1ccc(S(=O)(=O)N(C)CC(=O)NCCN2CCOCC2)cc1C	2%	3%
Clc1ccc(COc2ccccc2CNCc2cccnc2)cc1	-22%	-14%

Next compounds
SMILES	N370S GC	FEN1 inh
Cc1ccccc1OCc1nc(-c2ccc(Br)o2)no1	8%	1%
COC(=O)c1c(NC(=S)NC(=O)c2ccco2)sc2c1CCCC2	6%	-3%
CC(=O)Nc1ccc(NC(=O)CCCc2ccccc2)cc1	2%	5%
O=C(NC(=S)Nc1ccc(CN2CCOCC2)cc1)c1ccc(-c2ccc(Br)cc2)o1	-14%	-7%
Cc1ccc(C(=O)c2sc3nc4c(cc3c2N)CCC4)cc1	4%	8%
O=C(Nc1ccc2c(c1)OCO2)C1CCN(C(=O)c2ccc([N+](=O)[O-])cc2)CC1	0%	-1%
O=C(c1ccc2c(=O)n3c(nc2c1)CCCCC3)N1CCN(Cc2ccccc2)CC1	2%	-8%
Nc1ccccc1OCCOCCOc1ccccc1N	-10%	-2%
CCCCC(=O)NCc1ccc2c(c1)cc(C)n2C	-10%	-7%
COc1cc(C(=O)Nc2cccc(S(=O)(=O)N3CCCC3)c2)cc(OC)c1C	2%	-9%

Gathered by group: those above containing an NH in an aromatic ring
SMILES	N370S GC	FEN1 inh
O=C(N/C(=C/c1cccs1)c1nc2ccccc2[nH]1)c1ccccc1	3%	-4%
O=C(NCc1ccccc1)c1c(O)c2ccccc2[nH]c1=O	0%	-1%
CCCCOC(=O)C(C)Sc1n[nH]c(=O)[nH]c1=O (stereo not given)	1%	0%
CCOC(=O)c1c(C)[nH]c(C(=O)OCC(=O)N(CC(C)C)C2CCS(=O)(=O)C2)c1C (stereo not given)	nt	-17%

The list continues:
SMILES	N370S GC	FEN1 inh
c1cncc(CNC2CCCc3ccccc32)c1 (stereo not given)	-2%	-5%
Cc1occc1-c1nnc(SCC(=O)Nc2c(F)cccc2F)n1C	-6%	19%
COc1ccc(/C=C/C(=O)c2cccs2)cc1OC	6%	nt
Cc1cc2cc(CNC(=O)COc3ccccc3)ccc2n1C	5%	-20%
CCN1CCN(CC(O)COc2ccc3c(c2)CCC3)CC1 (stereo not given)	-1%	-2%
O=C(Cc1ccccc1[N+](=O)[O-])NCc1ccccc1Cl	2%	0%
COc1ccc(-n2c(C)cc(C(=O)CSc3nnc(-c4ccoc4C)n3C)c2C)cc1	12%	-3%
CC(=O)Nc1ccc(NC(=O)C(=O)NCC(c2ccco2)N2CCc3ccccc32)cc1 (stereo not given)	-5%	21%
Cc1c(NC(=O)COC(=O)/C=C/c2cccc(Cl)c2)c(=O)n(-c2ccccc2)n1C	nt	-16%
CCOC(=O)c1c(NC(=O)CS(=O)(=O)c2cn(CC)c3ccccc23)sc2c1CCCC2	?	-20%
Cc1ccc(-c2cc(C(F)F)n3ncc(C(=O)Nc4c(C)nn(Cc5ccccc5Cl)c4C)c3n2)cc1	13%	2%
Cc1ccccc1OCC(=O)NN1Cc2ccccc2C1=N	8%	8%
Cc1ccccc1NC(=O)c1c(C)[nH]c(=S)c(C#N)c1-c1ccc(Cl)cc1	-4%	-2%
CCOCCn1c(CN(Cc2ccccc2)Cc2ccccc2)nc2c1c(=O)[nH]c(=O)n2C	20%	-4%
O=C(COc1ccc(S(=O)(=O)N2CCCC2)cc1)NCc1ccco1	13%	7%
CN(C(=O)COC(=O)c1cccc(S(=O)(=O)N2CCCCCC2)c1)C1CCS(=O)(=O)C1 (stereo not given)	-4%	8%
Cc1cc(=O)oc2c(C)c(OC(C)C(=O)NCc3ccccn3)ccc12 (stereo not given)	-1%	18%
CSC1=N/C(=C\c2cccc(F)c2)C(=O)S1	5%	-11%
Cc1ccc(NC(=O)CSCCc2ccccn2)nc1	1%	-11%
O=C(c1cccnc1)N1CCN(C(=O)c2cccs2)CC1	3%	-1%

4 compounds picked at random from the list so far:
SMILES	N370S GC	FEN1 inh
CN(C(=O)COC(=O)c1cccc(S(=O)(=O)N2CCCCCC2)c1)C1CCS(=O)(=O)C1 (stereo not given)	-4%	8%
CSC1=N/C(=C\c2cccc(F)c2)C(=O)S1	5%	-11%
Cc1ccc(NC(=O)CSCCc2ccccn2)nc1	1%	-11%
Cc1ccccc1OCC(=O)NN1Cc2ccccc2C1=N	8%	8%

More compounds:
SMILES	N370S GC	FEN1 inh
Cc1ccccc1C(=O)NNC(=S)NC(=O)c1ccccc1	17%	-9%
CC(C)(C)c1ccc(-n2ncc3c2CCCC3NC(=O)CCN2CCCCC2=O)cc1 (stereo not given)	3%	5%
O=S(=O)(/N=C(/c1ccc(F)cc1)N1CCCCC1)c1ccc(Cl)cc1	-16%	0%
O=C(NCC1CCCN(Cc2ccc3nonc3c2)C1)c1cccc(C(F)(F)F)c1 (stereo not given)	20%	-7%
Cc1csc(NC(=O)CSc2nnc(-c3ccoc3C)n2CCc2ccccc2)n1	8%[2.35 µM]	0%
CSc1ccc(/C=C/C(=O)OCC(=O)N2CCN(S(=O)(=O)c3ccc(C)cc3C)CC2)cc1	nt	-11%
COc1ccc(OC)c(S(=O)(=O)N/N=C(/C)c2ccc3c(c2)OCO3)c1	-15%	18%
O=C(CSc1nnnn1C1CCCC1)NCc1ccc2c(c1)OCO2	1%	-8%
COc1ccc(CNC(=O)COC(=O)/C=C/c2ccco2)cc1	7%	-5%
Cc1[nH]c2ccc(F)cc2c1CCN(Cc1ccncc1)C(=S)Nc1cccc(F)c1	?	-23%
O=C(COc1ccccc1C(=O)NCc1ccccc1)Nc1ccccc1	nt	-14%
CCOc1ccccc1OCCCOc1ccc(C)cc1Br	-8%	-10%
CCOC(=O)c1cnn2c(C)cc(-c3ccc(F)cc3)nc12	-5%	2%
C/C(=N\N=C(N)N)c1cc(Cl)ccc1Cl	-8%	19%
CNC(=O)c1cc2c(ccc3ccccc32)oc1=N	3%	nt
CCOC(=O)c1nn(-c2ccccc2)c2nnc(Cc3ccc(C)cc3)c(=O)n12	23%	-2%
CCOc1ccccc1NC(=O)C(OC(=O)c1ccc(O)cc1)c1ccccc1 (stereo not given)	28%	-23%
Cc1oc(-c2cccc(Cl)c2)nc1CSc1nc2c(c(=O)[nH]1)CCC2	13%	-14%
COc1cc(SC)ccc1C(=O)NCCOc1c(C)cc(C)cc1C	16%	-10%
O=C(Cc1ccc(F)cc1)NC1CCS(=O)(=O)C1 (stereo not given)	-6%	-3%
C=CC(C)(C)c1cc2cc3ccoc3cc2oc1=O	?	-23%
C=CCN(CC=C)S(=O)(=O)c1ccc(NC(=S)NC(=O)c2ccc(-c3ccccc3)cc2)cc1	12%	-4%
COc1ccc(/C=C2/CCOC2=O)cc1	1%	0%
O=C(O)C1CCCCC1C(=O)NCc1cn2ccccc2n1 (stereo not given)	1%	-3%
O=C1CCC(=O)N1c1ccc(NCc2ccccc2Cl)c([N+](=O)[O-])c1	2%	-10%
Cc1ccc(S(=O)(=O)CC(=O)c2cc3cccc(C)c3oc2=O)cc1	1%	-3%
Cc1ccc(S(=O)(=O)N2CCC(C(=O)OC(C)C(=O)NCc3ccccc3)CC2)cc1C (stereo not given)	-6%	-3%
O=C(Nc1cccc(-c2cnc3ccccc3n2)c1)c1ccccc1	2%	-2%
O=C(O)CCSc1nnc(SCC(=O)NC2CCS(=O)(=O)C2)s1 (stereo not given)	nt	0%
N#Cc1ccccc1CSc1ccccn1	3%	1%
Cn1c(CNc2ccc(Cl)cc2)nnc1SCCN1CCCCC1	2%	6%
CC(=O)OC1CCC2(C)C3=C(CCC2C1(C)C)[C@]1(C)CCC(C(C)CCC=C(C)C)[C@]1(C)CC3 (stereo not given in full)	3%	nt
CCNc1cccc2c1C(=O)N(C)C2=O	1%	-16%
Cc1cccc(NC(=S)N2CCC(c3nc4ccccc4s3)CC2)c1	8%	-24%
C[C@@H](C(=O)Nc1nccs1)N1C(=O)C2CC=CCC2C1=O (stereo not given in full)	nt	14%
N#CC(CO)(Cc1ccc(OC(F)F)cc1)c1nc2ccccc2[nH]1 (stereo not given)	4%	-1%
Cc1ccccc1NC(=O)NNC(=O)COc1ccc2ccccc2c1	-11%	6%
Cc1ccccc1CCNCc1c(C(=O)O)c(C)n(Cc2c(F)cccc2Cl)c1C	nt	-2%
COc1ccccc1CC(=O)Nc1ccc2c(c1)C(=O)NC2=O	-6%	0%
C#CCOCCOCCOCCNc1nc(N2CCN(C(=O)[C@H](CO)n3cc([C@@H](N)C(C)C)nn3)CC2)nc(N2CCN(C(=O)[C@H](CCC(=O)O)n3cc([C@@H](N)[C@H](C)CC)nn3)CC2)n1	nt	-4%

Copied from the listing, six compounds:
SMILES	N370S GC	FEN1 inh
Cc1cccc(C(=O)NCC(c2ccco2)N(C)C)c1 (stereo not given)	-2%	15%
O=C(c1ccc(F)cc1)N(C(=O)c1ccc(F)cc1)c1ncccn1	-3%	-4%
CC1=C(C(N)=O)C(c2ccc(Cl)cc2Cl)n2ncnc2N1 (stereo not given)	7%	6%
CN(C)C(=O)CSc1ccccc1C(=O)OCC(=O)NC1CC1	nt	5%
CCSc1nnc(NC(=O)CSc2nc(C)cc(C)n2)s1	12%	8%
CCN(CC)S(=O)(=O)c1ccc(OC)c(NC(=O)COc2ccccc2[N+](=O)[O-])c1	-13%	35%[activator]

The list is partial, and most or all hits are left out here.
